High-throughput results deposited in PubChem by National Center for Advancing Translational Sciences (NCATS).
LASV entry inh: qHTS for Inhibitors of binding or entry into cells for Lassa Virus | Lassa virus pseudotyped entry inhibition, cell-based qHTS; control for the full effect not named in the record; many of its hits are not listed in these tables | Potency, µM (series often up to 49.2 µM), for inactives: top-dose activity change, negative = inhibition, most hits filed as inhibitors | 18,000 tested, 4.1% active | AID 720533, 2013; active = well fitted inhibition curve with a large enough effect; inconclusive = small, poorly fitted or top-dose-only effect; inactive = no such curve, though single readings can be large or run the other way; tested in HEK293 cells; further: luciferase read-out
MARV entry inh: qHTS for Inhibitors of binding or entry into cells for Marburg Virus; Potency, µM (series often up to 49.2 µM), without a hit: at the top dose activity change, negative = inhibition, usual class: inhibitors; Marburg virus pseudotype entry/binding inhibition, cell-based; control for the full effect not named in the record; many of its hits are not listed in these tables; 18,000 tested, 6.5% active; active means well fitted inhibition curve with a large enough effect; inconclusive means small, poorly fitted or top-dose-only effect; inactive means no such curve, though single readings can be large or run the other way; tested in HEK293 cells; further: luciferase read-out
The depositor's hits bear a star; ? = inconclusive; . = not tested or not shown; & = joins results of further samples; ! = not confirmed by another sample; [ ] = remark or other dose. On the % scale 0 is the no-effect control and ±100 the full control effect; potency means the concentration at half of the fitted maximal effect.

SMILES | LASV entry inh | MARV entry inh
O=S1(=O)N[C@H](Cc2ccccc2)COc2cc(NCCO)ccc21 | 16% | 20%
Oc1ccc(C(O)CNCCCCCCNCC(O)c2ccc(O)c(O)c2)cc1O (stereo unspecified) | -19% | -5%
COc1cc(OC)c(OC)cc1CN1CCOc2ccc(CN3CCN(C(C)=O)CC3)cc2C1 | 24% | -5%
CCCCN1CC(C)(C)[C@H](CC(=O)Nc2ccc(Br)cc2)C1=O | -6% | 27%
NS(=O)(=O)c1cccc(-c2ccc3c(NC(=O)C4CC4)n[nH]c3c2)c1 | . | ?
C[C@H]1[C@H]2CC[C@H]3[C@@H]4CC=C5C[C@@H](N(C)C)CC[C@]5(C)[C@H]4CC[C@]23CN1C | -26% | 3.2µM*
COc1cccc(-c2ccc(O)c(CNC(c3ccccc3)c3ccc(Cl)cc3)c2)n1 (stereo unspecified) | -12% | 0%
O=C(c1ccccc1-n1cccn1)N1CCOc2c(cc(-c3ncc(C(F)(F)F)cc3Cl)cc2OCC2CCCO2)C1 (stereo unspecified) | -6% | -18%
COc1ccccc1N1CCN(C[C@@H]2CN3C(=O)N(C)c4ccccc4C3=N2)CC1 | -12% | -2%
Cc1nc(-c2ccccc2)c(-c2ccncc2)o1 | 2% | -40%
CCCn1c(=O)c2[nH]c(-c3ccc(OCC(=O)Nc4ccc(C(C)=O)cc4)cc3)nc2n(CCC)c1=O | -12% | 4%
Cc1cc2c(c(=O)o1)[C@H]1O[C@](CCCCN3C(=O)c4ccccc4C3=O)(Cc3cc(C#N)ccc31)O2 | 9%[8.59 µM] | 39%[activator][8.59 µM]
CC1CCC(C(C)C)C(P(=O)(c2ccccc2)c2ccccc2)C1 (stereo unspecified) | -7% | -29%
CC(C)=CCC/C(C)=C\COc1c2ccoc2cc2oc(=O)ccc12 | -28% | -7%
COc1ccc2c(c1)C(=O)[C@H](OC(=O)NCc1ccc3c(c1)OCO3)[C@@H](c1ccc(OC)c(Br)c1)O2 | -17% | 3%
COC(=O)[C@H](C)N1CC=CCOc2c(Cl)cc(Cl)cc2[S+]1(=O)[O-] | -20% | -18%
C[N+]1=Cc2cc3c(cc2CC1)OCO3 | -2% | -4%
NC(=O)NC1NC(=O)NC1=O (stereo unspecified) | -12% | 1%
CC1O[C@@H](O[C@@H]2C(O)C[C@H](O[C@@H]3C(O)C[C@@H](OC4CC[C@@]5(C)C6CC[C@]7(C)C(C8=CC(=O)OC8)CC[C@@]7(O)C6CC[C@@H]5C4)OC3C)OC2C)CC(O)[C@H]1O (stereo partly specified) | 0.28µM* | 0.22µM*
CC(C)C1C(=O)O[C@@H]2CCN3CC=C(COC(=O)[C@](C)(O)[C@]1(C)O)[C@H]23 (stereo partly specified) | -3% | 6%
O=C1OCCN1C(=O)[C@H]1[C@H](c2ccc(F)cc2)C(c2ccccc2)=NN1c1ccccc1 | -18% | -13%
CCN(CC)CCOc1ccccc1OC | -4% | -5%
CCCCCCC#C[C@@H]1C=C[C@H](OC(C)=O)[C@@H](COC(C)=O)O1 | . | ?
NCC[C@H](O)C(=O)N[C@@H]1C[C@H](N)[C@@H](O[C@H]2O[C@H](CN)[C@@H](O)[C@H](O)[C@H]2O)[C@H](O)[C@H]1O[C@H]1O[C@H](CO)[C@@H](O)[C@H](N)[C@H]1O | -22% | -5%
COc1ccc(/C=C/C(=O)c2ccc(O)cc2O)cc1 | 11% | 4%
Cc1ccc([C@H]2C[C@H](n3cc(C4CC4)nn3)[C@@H](O)CN2CC2CCCCC2)cc1 | -33% | ?
CCc1cc2c(nc1CC)CCN(CCC(C)=NO[C@H](C)c1cn([C@H](CO)Cc3ccccc3)nn1)C2 | 2%[8.59 µM] | ?
Oc1[nH]c2ccccc2c1C=Nc1ccc(-n2cncn2)cc1 | -75% | -32%
COC(=O)C1=C(C(=O)OC)[C@@H]2N(C)c3ccccc3[C@@]23CCC(=O)N(Cc2ccc4c(c2)OCO4)C3=N1 | 4%[8.59 µM] | ?
O=c1ccc2c(OCCCCOc3ccccc3)c3ccoc3cc2o1 | ? | 7%
O=C1C[C@H]2CCCCC(=O)N3CC[C@@H](C1)[C@@H]23 | 8%[107 µM] | 3%[107 µM]
Cc1cc(=O)c(C(=O)N[C@@H](C(=O)N[C@@H]2C(=O)N3C(C(=O)O)=C(CSc4nnnn4C)CS[C@H]23)c2ccc(O)cc2)c[nH]1 | -3% | 11%
O=C(O)C1OC(O)C(O)C(O)C1O (stereo unspecified) | 0% | -8%
COC(=O)C1=C(C)N(CC#C[Si](C)(C)C)C(=O)N(C(C)=O)C1c1ccccc1 (stereo unspecified) | -12%[8.59 µM] | -5%[8.59 µM]
CCCCCCNC(=O)c1cccc(-c2ccc(C)c3ccccc23)n1 | 14% | 20%
[H+].[H+].[Hg+2].[O-]B([O-])[O-].[c-]1ccccc1 | 1µM* | ?
CCC1CN(Cc2cn[nH]c2-c2ccc(OC)cc2)Cc2cc(OC)ccc2O1 (stereo unspecified) | -19% | ?
CC12C=CC(=O)C=C1CCC1C2=CCC2(C)C1CC[C@@H]2C(=O)CN1CCN(c2cc(N3CCCC3)nc(N3CCCC3)n2)CC1 (stereo partly specified) | 4%&11% | 18µM*!
CCOC(=O)c1ccc(-c2c(C)cc3oc(=O)cc(-c4ccccc4)c3c2C)cc1 | ? | 4%
COCc1c(C(=O)NC2CCOC(C)(C)C2)cnn1-c1nccc(-c2cccs2)n1 (stereo unspecified) | -10% | 0%
O=C(Nc1cccc(C(F)(F)F)c1)c1cc(Br)cc(Br)c1O | 4µM* | ?
O=C1[C@H]2[C@@H]3[C@@H](O)[C@H](O)CC(=NOCc4ccccc4)[C@H]3CC[C@H]2C(=O)N1C1CCCCC1 | 1%[8.59 µM] | -25%[8.59 µM]
Cn1ccc2c(N3CCCCCCC3)cc3c(c21)C1CCC3O1 (stereo unspecified) | -13% | -17%
CC[C@H](C)[C@@H]1NC(=O)[C@@H]2CSCCS(=O)(=O)N2C1=O | 5% | 19%
CCN1C[C@]2(C)CC[C@H](OC)[C@@]34[C@@H]2[C@H](OC(C)=O)[C@]2(OCO[C@@]25C[C@@H](OC)[C@@H]2C[C@@]3(O)[C@H]5[C@@H]2OC)[C@H]14 | 2%[17.8 µM] | -12%[17.8 µM]
COc1ccc(-c2ccc3c(NC(=O)C4CC4)n[nH]c3n2)cc1 | 4% | 49%[activator]
CCCC[C@]12Cc3cc(OC)c(OC)cc3[C@H](O1)C1=C(CC3(CCCCC3)OC1=O)O2 | 13%[8.59 µM] | -24%[8.59 µM]
CCN(CC)C(=O)N[C@@H]1C=C2c3cccc4[nH]cc(c34)C[C@@H]2N(C)C1 | ? | 7%
CC(C)C[C@@H](CC(=O)N[C@@H](CCCN)CC(=O)N[C@@H]1CCNC[C@H]1C(=O)N[C@H](CC(=O)N[C@@H](CCC(=O)O)CC(=O)O)Cc1ccccc1)NC(=O)[C@@H]1CCCC[C@H]1N | -5% | -20%
CCN1CCN(C(=O)c2cnn(-c3ncc4c(n3)-c3ccccc3CCC4)c2COC)CC1 | ? | -2%
CN1CCN(C2=Nc3ccccc3Cc3ccccc32)CC1 | -5% | ?
COc1cc(C(=O)OC2CC[C@]3(C)C4CCC5[C@]6(O)CC(O)[C@]7(O)C(CN8CC(C)CCC8[C@]7(C)O)[C@]6(O)C[C@@]53O[C@]24O)cc(OC)c1OC (stereo partly specified) | -10% | 3%
C[N+](C)(CCCCCC[N+](C)(C)C1c2ccccc2-c2ccccc21)C1c2ccccc2-c2ccccc21 | -13% | -17%
COc1ncccc1C(=O)N1CCOc2ccc(C(O)C(c3ccccc3)c3ccccc3)cc2C1 (stereo unspecified) | -26% | -2%
C=C(C)C(=O)c1ccc(F)cc1 | 1% | 12%
COC(=O)[C@H]1O[C@@H](c2cc(OC)c(C)c(OC)c2O)[C@H](C)[C@@H](O)[C@H]1C | 2% | 8%
O=C1c2ccccc2C(Cc2ccncc2)(Cc2ccncc2)c2ccccc21 | -2% | ?
COP(=S)(OC)Oc1ccc(SC)c(C)c1 | -3%&-10% | 2%&12%
CSc1ncccc1C(=O)NCC1Cc2cc(-c3cnccn3)cc(Cl)c2O1 (stereo unspecified) | 3% | 9%
CCOC(=O)C1=C[C@@]2(CC)CCCN3CCc4c(n1c1ccccc41)C32 (stereo partly specified) | -7% | 10µM*

Taken from the listing (4 entries):
SMILES | LASV entry inh | MARV entry inh
O=C1c2ccccc2C(Cc2ccncc2)(Cc2ccncc2)c2ccccc21 | -2% | ?
COP(=S)(OC)Oc1ccc(SC)c(C)c1 | -3%&-10% | 2%&12%
CSc1ncccc1C(=O)NCC1Cc2cc(-c3cnccn3)cc(Cl)c2O1 (stereo unspecified) | 3% | 9%
CCOC(=O)C1=C[C@@]2(CC)CCCN3CCc4c(n1c1ccccc41)C32 (stereo partly specified) | -7% | 10µM*

The list goes on:
SMILES | LASV entry inh | MARV entry inh
COc1ccc(C=CN(CCc2ccc(OC)c(OC)c2)C(=O)c2ccccn2)cc1 | -1%[8.59 µM] | -11%[8.59 µM]
CC(C)c1cccc(C(C)C)c1O | -3% | 8%
C[C@]12CC[C@@H](O)C[C@@H]1CC[C@@H]1[C@@H]2CC[C@]2(C)C=CC[C@@H]12 | -11% | 0%
Cc1cccc2c3c(ccc12)C1=C(C(=O)C3=O)[C@@H](C)CO1 | -3% | 8%
C[C@@H]1C[C@](C)(C(=O)c2ccc3c(c2)OCO3)C=C1c1ccc2c(c1)OCO2 | -1% | ?
CNC(=O)C[C@H]1C(=O)N(c2ccc(OC)cc2)C[C@@H]1CSC | . | 21%
CCCN(CCC)CCc1c[nH]c2ccccc12 | -9% | ?
CCN1C(=O)N[C@@H](c2ccccc2)[C@@H](C(=O)OC)[C@H]1C | -15%[8.59 µM] | 1%[8.59 µM]
O=C1CC[C@@H](C(=O)O)N1 | -4% | 5%
COc1ccccc1CNCCS(=O)(=O)NCc1ccccc1OC | 12% | -20%
COc1cc(OC)c2c(-c3ccccc3)cc(=O)oc2c1C(CCN1CCOCC1)c1ccc(N(C)C)cc1 (stereo unspecified) | ? | 10µM*
CC(=O)OC[C@H]1O[C@H](CC=NOC[C@@H](O)[C@H]2O[C@@H]3OC(C)(C)O[C@H]3[C@@H]2O)C=C[C@H]1OC(C)=O | -5%[8.59 µM] | ?
Cc1ccc(O)c(-n2nc3ccccc3n2)c1 | 36%[activator] | 53%[activator]
COCOCCn1cc(CN2CCS(=O)(=O)N(Cc3ccc(-c4ccc(OC)cc4)cc3)C(C)C2=O)nn1 (stereo unspecified) | 15% | 17%
COc1cc2c(cc1OC)OC(C)(C)C=C2 | 0% | -13%
COC(=O)C1=C(C)N(Cc2ccccc2)C(=O)NC1c1cccc(F)c1 (stereo unspecified) | 9%[8.59 µM] | 3%[8.59 µM]
CCCCCCCCCCCCCCCC(=O)C(F)(F)F | -1% | 5%
C=CCN(CC=C)Cc1cc(=O)oc2cc(C)ccc12 | 5% | ?
COc1ccccc1N1CCN(CCCC(=O)c2ccc(F)cc2)CC1 | -27% | -28%
ClC(Cl)=C(c1ccc(Cl)cc1)c1ccc(Cl)cc1 | -13% | -5%
CNC(=O)Oc1cccc2c1OC(C)(C)O2 | -13% | 0%
CN[C@@H]1CCc2[nH]c3ccc(C(N)=O)cc3c2C1 | -12% | 8%
CC[C@H]1C[C@H](C=CCC(C(=O)OC)C(=O)OC)OP(=O)(OC)O1 (stereo partly specified) | -23% | 30%[activator]
NS(=O)(=O)C#Cc1ccccc1 | ? | ?
COC(=O)N1C(C=Cc2ccc3c(c2)OCO3)=Cc2ccccc2C1CC(C)=O (stereo unspecified) | . | -12%[8.59 µM]
C[C@H](N)C(=O)O | -12% | -9%
CC12C=C(C=CCCc3ccco3)C(C)(C1)[C@H](CCc1ccco1)CC2=O (stereo partly specified) | -24%[8.59 µM] | 29%[8.59 µM]
Cc1cccc2cc(CN(CC3CCCO3)C(=O)C3CC3)c(N(C)C)nc12 (stereo unspecified) | -5% | -17%
CC(C)(C)CC(C)(C)c1cc(Cc2cc(C(C)(C)CC(C)(C)C)cc(-n3nc4ccccc4n3)c2O)c(O)c(-n2nc3ccccc3n2)c1 | -16% | -2%
C=CC1=C(C)/C(=C/c2[nH]c(Cc3[nH]c(/C=C4\NC(=O)C(C)=C4C=C)c(C)c3CCC(=O)O)c(CCC(=O)O)c2C)NC1=O | -2% | ?
CC(C)C1C(=O)N(Cc2cn(CCC3OCCO3)nn2)CCS(=O)(=O)N1Cc1ccc(-c2ccc(F)cc2)cc1 (stereo unspecified) | . | ?

Profiles as entered above. Order of values: LASV entry inh, MARV entry inh
ClC(Cl)=C(c1ccc(Cl)cc1)c1ccc(Cl)cc1 is listed with -13%, -5%
NS(=O)(=O)C#Cc1ccccc1 is listed with ?, ?
C[C@H](N)C(=O)O is listed with -12%, -9%
CC(C)(C)CC(C)(C)c1cc(Cc2cc(C(C)(C)CC(C)(C)C)cc(-n3nc4ccccc4n3)c2O)c(O)c(-n2nc3ccccc3n2)c1 is listed with -16%, -2%

A portion of the library; count on the stated rates, not on these rows.
